UCH37 inh – inhibitors of human UCH37 deubiquitinase, primary screen, biochemical, Ub-AMC cleavage, fluorescence | Ubiquitin carboxyl-terminal hydrolase isozyme L5 (Homo sapiens), Q9Y5K5 | 330,000 compounds, 0.33% hits | inhibition, % (test concentration not listed) | purified proteasome/UCH37 | AID 588478, 2011;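 active = mean of two replicates above 20%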;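 also: 0% = compound-free wells with enzyme and 100% = wells lacking proteasome; stock transfer was 100 nL into about 20 µL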
Target sequence (Q9Y5K5 whole entry, looked up): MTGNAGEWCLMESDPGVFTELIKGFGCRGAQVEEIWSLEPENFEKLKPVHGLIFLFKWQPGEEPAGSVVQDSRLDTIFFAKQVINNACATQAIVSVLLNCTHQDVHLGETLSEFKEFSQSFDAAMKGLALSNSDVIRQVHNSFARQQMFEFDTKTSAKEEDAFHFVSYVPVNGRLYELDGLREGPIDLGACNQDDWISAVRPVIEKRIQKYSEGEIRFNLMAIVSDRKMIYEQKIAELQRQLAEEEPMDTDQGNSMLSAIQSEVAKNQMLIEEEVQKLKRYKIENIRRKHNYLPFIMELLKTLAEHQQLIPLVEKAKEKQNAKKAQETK
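System: Proteasome-associated human UCH37 deubiquitinase; Input: 0.15 nM proteasome in added enzyme buffer; Also added: Ub-AMC substrate from 1 µM stock; Incubation: 30 min compound-proteasome preincubation then 25 min substrate reaction, room temperature; Detection: fluorescence, ex 355 nm, em 460 nm; Read-out: % inhibition of Ub-AMC cleavage fluorescence; Benchmarks: no-proteasome and no-compound wells.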
RanGTP-Imp inh – inhibitors of RanGTP-importin-beta interaction, primary screen, biochemical, FRET, CFP-Ran, YFP-importin-beta, homogeneous; 300,000 compounds, 1.1% hits; cell-free CFP-Ran/YFP-importin-beta FRET ratio; Ran GTPase (GTP-bound) - importin-beta complex; inhibition, % (test concentration not listed); AID 2216, 2009;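 active = most replicates above 15%; inconclusive = exactly half above 15%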;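 also: 0% = DMSO wells and 100% = Ran loaded with GDP instead of GTP; wells of about 40 µL received 100 nL stock; the first replicate is given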
Calb FLC – C. albicans growth inhibition with fluconazole, primary screen, CaCi-2 strain, Alamar Blue fluorescence | C. albicans CaCi-2 (fluconazole-resistant clinical isolate) + fluconazole, 48 h | growth inhibition, % (concentration not given with the values) | 300,000 compounds, 0.57% hits | AID 1979, 2009;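 active = most replicates above 75%; inconclusive = exactly half above 75%; inactive = most below 75%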;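 also: all wells also contain fluconazole at 8 µg/ml as a sub-toxic cotreatment; 0% = median of DMSO wells and 100% = median of geldanamycin control wells; wells of about 8 µL received 7.5 nL stock; the first replicate is given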
LANA-H2B inh – blockers of LANA interaction with H2A/H2B – biochemical, FP readout, HTS, primary screen; cell-free LANA-H2A/H2B peptide, fluorescence polarization; AID 2629, 2010; inhibition, % (concentration not given with the values); 320,000 compounds, 0.6% hits; in the data active = inhibition mostly above about 10%, no sharp cut-off; inactive = mostly below about 6.7%;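 also: stock transfer was 7.5 nL into about 10 µL; 0% = median of vehicle wells and 100% = median of positive control wells; one replicate is shown; the record names a cut of 25% in any replicate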
Beta2AR agonist – beta2AR agonists driving receptor internalization, primary screen, cell-based, FAP fluorogen, flow cytometry. Beta-2 adrenergic receptor (Homo sapiens), P07550. Am2.2-beta2AR cells; reference of the scale not given here. response, % (no concentration beside the values). 340,000 compounds, 0.43% hits;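 active = response above a set limit, near 3 SD of response in nonfluorescent compounds, cut at about 42% in these data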;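 also: stock transfer was 100 nL into about 11 µL; a reference agonist was the positive control; negative values mostly stem from fluorescent compounds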
Target sequence (P07550 whole entry, looked up): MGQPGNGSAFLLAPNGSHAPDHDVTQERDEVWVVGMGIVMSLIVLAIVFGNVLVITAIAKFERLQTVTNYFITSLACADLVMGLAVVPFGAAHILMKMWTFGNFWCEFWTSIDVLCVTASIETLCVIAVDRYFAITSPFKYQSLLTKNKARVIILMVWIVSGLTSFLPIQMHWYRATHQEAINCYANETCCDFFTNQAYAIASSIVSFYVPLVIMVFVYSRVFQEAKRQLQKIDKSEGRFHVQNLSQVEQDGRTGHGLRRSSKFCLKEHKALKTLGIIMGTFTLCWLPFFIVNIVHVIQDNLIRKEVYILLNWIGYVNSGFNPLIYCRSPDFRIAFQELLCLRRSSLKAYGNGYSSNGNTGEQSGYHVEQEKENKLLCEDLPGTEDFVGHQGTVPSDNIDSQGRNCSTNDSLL
Beta cell apopt – inhibitors of cytokine-induced beta cell apoptosis, primary screen, luminescence; INS-1E cytokine-induced death, ATP luminescence, 48 h; percent of positive-control rescue, neutral wells zero; protection from apoptosis, % (no concentration beside the values); 300,000 compounds, 0.8% hits;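 active = all replicates at 75% or more, or half of them and the mean; inconclusive = half reach 75% but not the mean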;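 also: 0% = cytokine-treated negative control wells and 100% = positive control rescue; higher means more ATP so stronger rescue from cytokine killing; wells of about 40 µL received 100 nL stock; the first replicate is given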
T cruzi inh – inhibitors of intracellular T. cruzi growth, primary screen, luminescence, NIH3T3 host cells. AID 1885, 2009. 300,000 compounds, 1.4% hits. T. cruzi beta-gal in NIH3T3, 90 h. inhibition, % (no concentration beside the values);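 active = mean inhibition across valid replicates above about 55%, limit read from the data; inconclusive = mean below that limit but half or more replicates reach it; inactive = mean below it, under half of replicates reach it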;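 also: signal also drops with host cell toxicity which is not excluded here; 0% = plate median of DMSO wells and 100% = zero luminescence signal; higher percent means less beta-gal luminescence so fewer parasites; stock transfer was 50 nL into about 50 µL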
A1 inh – caspase 3/7 activation in MEF A1-2A-BIM cells, primary screen, A1 inhibitor project, cell-based, luminescence, HTS | caspase activation, % (no concentration beside the values) | 330,000 compounds, 0.066% hits | Caspase-Glo 3/7 luminescence, 3 h; percent of clofoctol response, vehicle zero;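 active = over half of replicate activation scores above 10%, or exactly half above 10 with the replicate mean above 10; inconclusive = replicate mean below 10 yet half the replicates above 10; inactive = over half of replicates below 10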;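 also: wells of about 30 µL received 50 nL stock; many hits fall short of the cut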
Starred values were filed as active, the others as inactive; i = inactive; ? = inconclusive; · = not tested or not shown. An unsorted share of the library. Share with any hit: about 4.3%.

SMILES | UCH37 inh | RanGTP-Imp inh | Calb FLC | LANA-H2B inh | Beta2AR agonist | Beta cell apopt | T cruzi inh | A1 inh
C#CCOCCOCCOCCNc1nc(N2CCN(C(=O)C([C@@H](C)CC)n3cc(C(N)CC(C)C)nn3)CC2)nc(N2CCN(C(=O)[C@H](CCC(=O)O)n3cc(C(N)Cc4ccc(O)cc4)nn3)CC2)n1 (stereo not given in full) | 3.3 | 0.9 | -5 | 0.7 | 6 | -7 | -19 | 0.1
CSCCC(NC(=O)COc1ccccc1)C(=O)N1CCN(c2ccccc2)CC1 (stereo not given) | 1.1 | · | · | 1.1 | -3 | 1 | · | 0.3
Clc1ccccc1-c1nc(-c2ccc(Br)o2)no1 | 4.5 | -1.0 | -3 | -1.2 | -3 | -3 | 4 | -10
CCCc1nc(SCC(=O)Nc2nc3c(s2)CCCC3)c2ccccc2n1 | 4.5 | -0.6 | -4 | 3.2 | -4 | -9 | -7 | -0.6
O=C(Cn1c(=O)c2cccn2c2ccccc21)NCc1cccc(F)c1 | -5.3 | 6.0 | -23 | -3.4 | -13 | 3 | 17 | -1.7
Cn1c(=O)c2[nH]c(CN(Cc3ccccc3)Cc3ccccc3)nc2n(C)c1=O | 2.4 | 2.3 | 4 | -4.6 | -5 | 7 | -9 | -0.4
O=c1cc(-c2ccccc2)nc(N2CCN(Cc3ccccc3)CC2)[nH]1 | 5.1 | 3.4 | 11 | -1.3 | 5 | 9 | 19 | 0.0
Cc1ccc(NC(=O)Cn2nc(C(=O)O)c3ccccc3c2=O)cc1S(=O)(=O)N1CCCCC1 | -1.4 | · | · | 1.9 | 5 | 1 | · | -1.1
O=C(NCCCn1ccnc1)C(=O)NCC1OCCCN1S(=O)(=O)c1ccccc1 (stereo not given) | -0.2 | 5.0 | -1 | 2.4 | 0 | -4 | -13 | 0.4
CCOC(=O)c1cccc(NC(=O)CSc2nnc(C)n2CC2CCCO2)c1 (stereo not given) | 0.3 | -2.3 | -3 | 0.1 | 1 | -9 | 4 | 0.5
CN(C)c1ccc(-n2cccc2/C=N/n2cnnc2)cc1 | · | -3.0 | -7 | 3.0 | 0 | -3 | -8 | 0.7
Cc1c(O)ccc(/C(Cc2ccc3ccccc3n2)=N\N)c1O | · | -0.6 | 45 | -2.2 | 9 | 7 | 37 | 0.4
CCSc1nc2[nH]ncc2c(=O)[nH]1 | 0.6 | -0.9 | -3 | -0.4 | 0 | · | -16 | -0.6
COc1ccc([N+](=O)[O-])cc1NC(C)C | 6.9 | 1.1 | -2 | 4.8 | 0 | -5 | -1 | 0.7
Cc1ccc(C)c(Cn2nnc3c(=O)[nH]c(C4CCCN(C(=O)CC(C)C)C4)nc32)c1 (stereo not given) | 6.7 | -1.9 | -15 | -9.5 | -3 | 7 | 13 | 0.3
S=c1nc2c(n[nH]1)c1ccccc1n2CCc1ccccc1 | 1.9 | 3.9 | 1 | -1.4 | -5 | 18 | 66* | -0.9
O=C(OCc1nnc(-c2ccc(Cl)cc2)o1)c1ccc(=O)n(Cc2ccccc2)n1 | 1.9 | -2.2 | 0 | -0.7 | -3 | -4 | 5 | 0.0
NC(=O)c1ccc(F)cc1 | 2.9 | 17* | -6 | -0.5 | 2 | -4 | -17 | -0.4
COc1ccc(NC(=O)NC23CC4CC(CC(C4)C2)C3)cc1OC | 1.8 | 3.5 | 9 | 0.4 | -4 | -1 | -9 | -1.2
CCN(C(=O)CCS(=O)(=O)c1cc2c(cc1Cl)NC(=O)CO2)c1ccccc1 | 2.8 | 1.0 | 0 | -0.6 | -2 | 0 | 6 | -0.4
COc1ccc(-c2cnn3c4c(c(C)nc23)CCN4C2CCCC2)cc1OC | -40 | 3.9 | 33 | -0.4 | 10 | · | 31 | -0.4
CC(C)[C@H](NC(=O)Nc1ccc2c(c1)OCCO2)C(=O)O | 3.7 | 3.3 | 14 | 3.8 | 5 | -6 | -5 | -0.3
CN(C[C@H](Cc1ccccc1)N(C[C@@H](Cc1cccc2ccccc12)N(CCc1ccccc1)N=O)N=O)N=O | 6.4 | -4.2 | -8 | -0.3 | -8 | 0 | 17 | -0.7
O=S(=O)(/N=C(\[O-])C[n+]1ccccc1)c1ccc(Cl)cc1 | · | ? | -3 | -3.0 | -6 | 1 | 2 | 0.5
O=C(CCN1C(=O)c2ccncc2C1=O)Nc1ccc2c(c1)OCCO2 | 4.0 | 3.4 | 2 | 1.1 | -9 | -8 | 0 | 0.0
O=C(NCc1ccco1)c1ccc(S(=O)(=O)c2cccc(S(=O)(=O)N3CCOCC3)c2)cc1 | 4.3 | -0.7 | 2 | -3.3 | 6 | 0 | -1 | 1.0
c1ccc(C2=NCCCN2)cc1 | 1.7 | -0.5 | 42 | -0.2 | -5 | -3 | 0 | -7.1
Cc1c(NC(=O)c2nn(C)c(=O)c3ccccc23)c(=O)n(-c2ccccc2)n1C | 2.9 | -4.8 | -4 | 5.4 | 6 | -7 | -10 | -0.6
Cc1cccc(NC(=O)c2cc(N3C(=O)CCC3=O)ccc2Cl)n1 | 1.2 | 6.1 | -3 | -0.1 | -4 | -6 | -5 | 0.3
Cc1ccnc2nc(C(=O)OCCOc3ccc(F)cc3)nn12 | 3.6 | 2.9 | 6 | -5.1 | 4 | -12 | -1 | -0.2
Cn1nc(C(C)(C)C)cc1C(=O)NCc1ccc2c(c1)OCO2 | 0.2 | -0.9 | -13 | 2.7 | -1 | 117* | 18 | -0.4
CCCn1c(=O)c(-c2nc3ccccc3[nH]2)c(O)c2ccccc21 | -117 | 2.3 | 1 | 1.9 | -20 | -5 | 26 | 0.4
C#CCOCCOCCOCCNc1nc(N2CCN(C(=O)[C@H](Cc3cc4ccccc4[nH]3)n3cc([C@@H](N)CC(C)C)nn3)CC2)nc(N2CCN(C(=O)[C@H](Cc3cc4ccccc4[nH]3)n3cc([C@@H](N)CC(C)C)nn3)CC2)n1 | 1.2 | 3.1 | 22 | 4.6 | 22 | 6 | 1 | -0.3
CCC1CCCCN1c1cc(C)nc2cc(-c3cccc(C)c3)nn12 (stereo not given) | -31 | -3.4 | -5 | 0.4 | 34 | 1 | 43 | -0.7
Cc1nn2c(nc(N3CCCCC3)c3ccccc32)c1C=O | -42 | 1.3 | 33 | · | -16 | -4 | 15 | -0.5
C=C(C)C(=O)OCCCCCCOc1ccc(C(=O)O)cc1 | 4.5 | -5.5 | -4 | 0.7 | -2 | -14 | 10 | -0.3
O=C(CCS(=O)(=O)c1ccc(Br)cc1)N1CCN(c2ccccc2Cl)CC1 | -1.7 | 4.6 | -3 | 8.0 | -3 | 2 | 22 | 0.2
COc1ccc2cc(C(=O)C3CCCN(C(=O)c4snnc4C)C3)ccc2c1 (stereo not given) | -277 | 6.2 | 12 | -0.8 | -12 | 3 | 5 | 0.1
CCOC(=O)CN1C(=O)S/C(=C/c2ccc3c(c2)n(C)c(=O)n3C)C1=O | 0.0 | ? | 11 | -11 | 6 | -5 | -15 | 0.4
CC(Sc1nccn1C)C(=O)Nc1ccccc1 (stereo not given) | 2.1 | 5.9 | 2 | -5.6 | -3 | -6 | -15 | 0.8
CCOC(=O)c1c(C)[nH]c(C)c1C(=O)COC(=O)c1ccc(Cl)nc1 | -1.8 | · | · | 1.4 | -10 | -4 | · | 0.7
CCOc1c2ccc(C(=O)NCc3ccc(OC)cc3)cc2nn1CCOC | -53 | 1.3 | -5 | 7.5 | -10 | -2 | -10 | -0.5
CNc1oc(/C=C/c2ccccc2)nc1C#N | i | -0.2 | -23 | -3.5 | -7 | · | -2 | -3.7
Cc1ccc(S(=O)(=O)Nc2ccccc2C(O)c2ccccc2)cc1 (stereo not given) | 2.4 | -0.2 | 8 | 7.4 | -6 | -2 | -28 | 2.4
CCCCc1ccc(NC(=O)NCc2cccnc2)cc1 | 5.6 | -3.5 | 2 | -2.3 | 0 | 9 | -5 | -0.1
COCCCn1c(C)nnc1SCc1ccc(C(C)(C)C)cc1 | 0.3 | -3.2 | -39 | 3.6 | -3 | 1 | 3 | 0.0
CCOC(=O)c1c(N/N=C/c2cccnc2)n[nH]c1C | · | -0.1 | 10 | 0.2 | 2 | 4 | -14 | 0.4
O=C(NCC1CCCO1)c1cccc(Oc2ccc([N+](=O)[O-])cc2)c1 (stereo not given) | 6.0 | 3.1 | 13 | 4.0 | -12 | 0 | -19 | -0.3
O=[N+]([O-])c1cccc(/C=N/n2c(COc3ccccc3)n[nH]c2=S)c1 | · | 1.2 | 0 | 5.7 | 21 | -21 | 5 | 0.2
CC(=O)Nc1ccc(C2=CC(=O)C[C@H](c3ccc(Cl)cc3)C2)cc1 | -2.0 | · | · | -2.8 | -13 | 0 | · | 0.8
Cc1cc2nc(SCC(=O)N(C)C)c3c(c2cc1C)CCCC3 | 1.7 | -7.9 | 11 | -0.1 | 1 | -2 | 36 | 0.0
COc1cc(OC)c2cc(C(=O)N/N=C/c3ccccc3O)[nH]c2c1 | · | 2.6 | 81* | 7.1 | -5 | 85* | 9 | 0.4
N#CC1(NC(=O)CSc2nnc(C3CC3)n2C2CC2)CCCCC1 | 2.8 | · | · | 0.0 | -10 | -4 | · | 0.7

From PubChem BioAssay
